RecA splice inh – blocks M. tuberculosis RecA intein splicing. cell-free RecA intein splicing, fluorescence. AID 2221. P9WHJ3. inhibition, %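 (about 9 µM by stock and volumes)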. hit rate 0.75% among 290,000; in the data active means inhibition above about 30%; inconclusive means no clear call, values can overlap the other calls;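 further: 0% = vehicle wells and 100% = reference inhibitor control wells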
Target sequence (P9WHJ3 whole entry, looked up, canonical isoform): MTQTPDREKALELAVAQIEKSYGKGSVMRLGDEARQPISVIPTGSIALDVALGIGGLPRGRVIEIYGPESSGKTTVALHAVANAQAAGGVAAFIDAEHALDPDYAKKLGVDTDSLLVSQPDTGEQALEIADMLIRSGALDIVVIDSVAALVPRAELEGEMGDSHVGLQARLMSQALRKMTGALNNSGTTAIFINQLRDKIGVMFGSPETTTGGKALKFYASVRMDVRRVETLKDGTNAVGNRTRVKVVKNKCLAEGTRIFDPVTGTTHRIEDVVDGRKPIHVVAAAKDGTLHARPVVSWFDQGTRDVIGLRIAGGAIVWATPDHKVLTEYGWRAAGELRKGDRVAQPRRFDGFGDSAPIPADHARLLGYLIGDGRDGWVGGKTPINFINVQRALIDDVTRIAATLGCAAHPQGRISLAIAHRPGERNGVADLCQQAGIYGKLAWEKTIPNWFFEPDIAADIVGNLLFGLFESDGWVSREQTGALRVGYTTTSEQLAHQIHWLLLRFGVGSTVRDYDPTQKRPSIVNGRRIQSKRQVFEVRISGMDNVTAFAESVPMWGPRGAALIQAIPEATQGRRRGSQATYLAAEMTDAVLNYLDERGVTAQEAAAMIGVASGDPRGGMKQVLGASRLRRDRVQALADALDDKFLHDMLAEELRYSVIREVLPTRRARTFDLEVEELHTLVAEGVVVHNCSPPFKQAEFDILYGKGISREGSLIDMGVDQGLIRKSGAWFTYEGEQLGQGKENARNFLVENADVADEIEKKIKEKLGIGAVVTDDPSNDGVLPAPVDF
YopH inh – blocks Yersinia enterocolitica YopH tyrosine phosphatase; fluorescence Ex485/Em525; inhibition, %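 (about 10 µM by stock and volumes)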; hit rate 0.16% among 140,000; AID 898;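 active means inhibition of 50% or more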;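 further: controls were vehicle for no effect and minimum signal wells for full effect; inactives centre near -20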
Mtb bLac sens – beta-lactam sensitization of Mtb H37Rv | hit rate 0.27% among 330,000 | inhibition, % at 25 µM | AID 434955 | M. tuberculosis H37Rv growth with meropenem, percent inhibition; hits of this screen are not shown here;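 active means about 74% or more and at least 40 points above the plate without the antibiotic, then above 30% in a dose series; inconclusive means first-round hits that could not be retested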;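 further: growth measured after seven days incubation then overnight dye step; 0% = bacteria only wells and 100% = bacteria with antibiotic; twin plates without the antibiotic show which effects depend on it; some results filed as inactive read as strong as hits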
Arbovirus inh – blocks arbovirus infection; arbovirus infection cell-based antiviral screen; inhibition, % at 10 µM; hit rate 0.37% among 200,000;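 active means inhibition from about 30%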;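 further: bluetongue infection of BSR cells; cell survival read as ATP light after 72 h; 0% = infected wells without compound and 100% = uninfected wells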
Mtb growth – M. tuberculosis H37Rv growth inhibitors, H37Rv strain (AID 1626); M. tuberculosis H37Rv growth inhibition; higher % means a stronger effect; one-dose inhibition, % at 10 µM; IC50 in µM for titrated hits; hit rate 0.95% among 220,000;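 active means confirmed in a dose series; inconclusive means inhibition above 80% but not taken into the dose series; inactive means below 80% or under 30% at every dose of the series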;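 further: bacteria incubated seven days before Alamar blue readout; 0% = bacteria only wells and 100% = bacteria with antibiotic wells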
Arbovirus inh repeat – further read-out of Arbovirus inh, marked with its call; inhibition, %; measured here: 10K subset replicate screen; many hits read low in the repeat;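 first of two repeat runs on a subset; 0% = infected and 100% = uninfected wells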
Starred values were filed as active, the others as inactive; ? = inconclusive; . = no result given.

A first look (four entries):
SMILES	RecA splice inh	YopH inh	Mtb bLac sens	Arbovirus inh	Mtb growth	others
COc1cccc(C(=O)NCCS(=O)(=O)NCc2ccc3c(c2)OCO3)c1	-4.1	.	0	.	.
NC(=O)c1ccccc1NC(=O)Nc1cccc2ccccc12	1.2	.	-2	1	-1%
Cc1ccccc1N(C(=O)c1csnn1)C(C(=O)NC(C)(C)C)c1ccncc1 (centres undefined)	1.0	.	4	5	-1%
N=c1c2c3c(sc2nc2n1CCC2)CCCC3	-2.7	-17	8	12	-4%

The listing (from the top)
SMILES	RecA splice inh	YopH inh	Mtb bLac sens	Arbovirus inh	Mtb growth	others
COc1cccc(C(=O)NCCS(=O)(=O)NCc2ccc3c(c2)OCO3)c1	-4.1	.	0	.	.
NC(=O)c1ccccc1NC(=O)Nc1cccc2ccccc12	1.2	.	-2	1	-1%
Cc1ccccc1N(C(=O)c1csnn1)C(C(=O)NC(C)(C)C)c1ccncc1 (centres undefined)	1.0	.	4	5	-1%
N=c1c2c3c(sc2nc2n1CCC2)CCCC3	-2.7	-17	8	12	-4%
Cn1c(=O)cc(SCC(=O)Nc2ccc3c(c2)OCO3)c2ccccc21	3.8	-21	-9	-6	-14%
O=C(Nc1nnc(-c2ccccc2)o1)c1cccc(N2C(=O)CCC2=O)c1	1.0	-26	-9	4	7%
COc1ccc(N/C=C\C(=O)c2ccc3ccccc3c2)cc1	-2.9	.	-1	.	.
CCOC(=O)N1CCN(c2c(NCCCN(CC)c3cccc(C)c3)c(=O)c2=O)CC1	-3.5	-44	.	6	-3%
CCN(CC)C(=O)CSc1nnc([C@@H](N)C(C)C)o1	0.8	.	0	.	-7%
COc1ccc(/C=C/C(=O)NC(=S)N2C[C@H]3C[C@H](C2)c2cccc(=O)n2C3)cc1OC	0.9	.	-4	.	.
COC(=O)c1cc(NC(=O)CN(c2ccc(OC)cc2)S(=O)(=O)c2ccc(F)cc2)ccc1Cl	0.4	-25	.	-12	4%
COC(=O)NCC(c1ccco1)N1CCN(c2ccccc2)CC1 (centres undefined)	1.3	.	-8	1	4%
O=C(CSc1nnnn1-c1ccccc1)c1cc2ccccc2oc1=O	4.3	-37	-7	-5	6%
Cc1cc(C)nc(SCc2cnc(C)nc2N)n1	0.1	.	-10	19	2%
O=c1[nH]c2ccccc2c(=O)n1CCCO	4.9	-21	-6	5	-10%
Cc1ccc([N+](=O)[O-])cc1-c1ccc2cccc(C)c2n1	3.5	11	6	-3	-1%
Nc1ccc2nn(-c3ccccc3)nc2c1	.	.	.	-18	-7%
COCCCNC(=O)C(=O)NCC1CCCN1S(=O)(=O)c1cccs1 (centres undefined)	1.1	.	-12	.	.
O=C(CN1C(=O)N/C(=C\c2ccccc2OCc2ccc(C(=O)O)cc2)C1=O)Nc1ccccc1F	-2.4	.	5	.	.
O=C(NCCc1ccccc1)Nc1cccc(Cl)c1	-2.9	-30	-2	5	73%
O=C(c1ccco1)N1CCN(C(=O)c2[nH]ncc2[N+](=O)[O-])CC1	-0.8	-19	-4	2	2%
COc1ccc(CCNC(=O)COC(=O)COc2c(C)cc(C)cc2C)cc1OC	1.6	.	-7	.	.
O=C(CCCOc1ccccc1)NCC1CCCO1 (centres undefined)	.	-38	0	-1	-17%	Arbovirus inh repeat=0
CC1(C)CC(=O)C2=C(C1)OC(N)=C(C#N)C21CCC2(CC1)OCCO2	-4.7	-23	2	2	-7%
Cc1ccc(S(=O)(=O)CC(CN2CCCCC2)N2CCCCC2)cc1 (centres undefined)	.	.	.	-37	6%
CCC(C)[C@H](NC(=O)NCc1ccccc1Cl)C(=O)OC (some centres undefined)	1.8	-53	34	-3	4%
COc1cc2c(cc1OC)C(C)N(C(=O)c1sc(-c3cnccn3)nc1C)CC2 (centres undefined)	-0.2	.	4	.	-8%
COC(=O)Nc1ccc(S(=O)(=O)N2CCCC(C(=O)Nc3cccc4c3OCCO4)C2)cc1 (centres undefined)	.	-15	10	-8	-16%
O=C(NCC(=O)N1CCCC1)c1ccc(Br)o1	-2.0	.	-3	.	.
Cc1ccccc1OC(C)C(=O)Nc1ccc2c(c1)OCCO2 (centres undefined)	-0.8	.	-8	.	.

3 structures already listed, ordered by molecular weight, lowest first.
SMILES	RecA splice inh	YopH inh	Mtb bLac sens	Arbovirus inh	Mtb growth	others
O=C(NCCc1ccccc1)Nc1cccc(Cl)c1	-2.9	-30	-2	5	73%
O=C(NCC(=O)N1CCCC1)c1ccc(Br)o1	-2.0	.	-3	.	.
O=C(Nc1nnc(-c2ccccc2)o1)c1cccc(N2C(=O)CCC2=O)c1	1.0	-26	-9	4	7%

More structures follow.
SMILES	RecA splice inh	YopH inh	Mtb bLac sens	Arbovirus inh	Mtb growth	others
COCCCNC(=O)c1cc2cc([N+](=O)[O-])cc(OC)c2oc1=O	-0.6	.	6	5	4%
Cc1ccc(C)c(Cn2nnc(C(=O)Nc3ccc4c(c3)OCCO4)c2N)c1	1.2	.	1	.	.
O=C1NC2(CCN(Cc3ccccc3)CC2)Oc2ccccc21	-1.1	.	2	12	6%
O=C(O)CC(C(=O)Nc1ccc(Cl)c(Cl)c1)C1CCCO1 (centres undefined)	-1.1	-13	0	15	-9%
O=C1CCN(CCc2ccccc2)CCN1[C@H](CO)Cc1ccccc1	-3.0	.	-9	.	.
COc1ccc(-c2cc(-c3ccccc3O)[nH]n2)cc1OC	3.0	-11	82	26	-3%
CCOC(=O)c1ccc(NC(=O)C(=O)NCc2ccco2)cc1	-1.8	.	1	-12	-12%
C/C(N)=C(/C#N)C(=O)COC(=O)c1cc(-c2cccc3ccccc23)nc2ccccc12	6.6	-5	13	7	6%
CCn1c(O)c(N=NC(=O)C(O)c2ccccc2)c2ccccc21 (centres undefined)	1.7	.	2	.	-3%
CC(=O)c1ccc(-n2c(CCC(=O)O)ccc2-c2ccccc2)cc1	0.1	.	6	.	.
CCOc1ccccc1/C=N/NC(=O)Cc1csc(Nc2cccc(C(F)(F)F)c2)n1	8.5	-50	0	-12	-2%
O=C(NCc1ccccc1Cl)c1ccc[nH]1	-6.1	.	-4	-3	8%
CCOC(=O)C1CCN(C(=O)c2ccc(OCC(=O)N3CCOCC3)c(OC)c2)CC1	1.1	.	-1	.	.
CCCCCCCCCCCCN1[C@@H](CC(=O)O)c2cc(F)ccc2S1(=O)=O	22	.	-8	.	-12%
Cc1ccc(Cc2nnc3n(-c4ccccc4)nc(C(=O)c4ccccc4)n3c2=O)cc1	-2.9	-29	1	-19	-7%
Cc1nnc(SCc2ccc(CC(=O)O)cc2)o1	-1.1	-45	-8	5	0%
CCc1nn(CC(=O)Nc2ccc(Br)c(C)c2)c(=N)s1	0.3	.	14	8	37%
COC(=O)c1c(NC(=O)c2ccccc2)sc2c1CC(C)(C)NC2(C)C	-2.6	.	-7	-15	.
Cc1ccc(C)c(S(=O)(=O)N2CCN(C(=O)Cc3ccc(S(=O)(=O)N4CCOCC4)s3)CC2)c1	1.3	.	-2	.	.
CCCCCc1ccc(-c2nnc(N)s2)cc1	-6.3	.	4	-30	-2%
COc1ccc(C2=NN(C(N)=S)C(c3ccccc3)C2)cc1 (centres undefined)	2.9	.	0	8	-3%
Cc1ccccc1NS(=O)(=O)c1ccc(C(=O)N2CC(C)OC(C)C2)cc1 (centres undefined)	-0.5	.	-2	.	.
Cc1ccccc1OCCn1c(=O)sc2ccccc21	16	12	1	3	7%
Cc1cc(=O)oc2c(C)c(OCC(=O)N3CCN(Cc4ccccc4)CC3)ccc12	0.7	.	-6	.	.
O=Nc1ccc(NOC(=O)c2ccc(Br)cc2)cc1	.	-38	.	1	0%
Nc1ccc(N2CCCCC2)c(S(=O)(=O)Nc2ccc(Cl)cc2)c1	-2.1	.	-4	.	-7%
Cc1c(NC(=O)C(C)OC(=O)Cc2ccc(F)cc2)c(=O)n(-c2ccccc2)n1C (centres undefined)	0.6	.	-8	.	.
Cc1ccc(S(=O)(=O)N2CCC(C(=O)NNS(=O)(=O)c3ccc(Cl)cc3)CC2)cc1	4.6	-12	5	6	-6%
Cc1ccc(S(=O)(=O)NCCC(=O)NCc2ccccn2)cc1	-0.3	.	-10	.	.
CC1Cc2ccccc2N1C(=O)c1cccnc1 (centres undefined)	-0.6	-23	?	2	3%
CCCC(=O)Nc1nn(CC)c2nc3ccc(C)cc3cc12	-56	.	-1	.	.
CC(=O)Nc1ccc(NC(=O)C(=O)N/N=C/c2cccnc2)cc1	.	.	-10	.	-11%
O=S1(=O)C=CC(Sc2nc3ccccc3[nH]2)C1 (centres undefined)	.	9	31	9	-1%
O=C(CCC1N=C2c3ccccc3N=C(SCc3cccc(Cl)c3)N2C1=O)NCc1ccco1 (centres undefined)	3.4	-2	0	-16	-5%
C#CCOc1c(Cl)cc(/C=C2/C(=O)ON=C2C)cc1OCC	2.4	.	-1	.	.
C=C(C)CSc1nnc(-c2ccccc2)n1N	0.6	-23	-2	2	.
O=C(COc1ccccc1/C=C1\SC(=O)NC1=O)Nc1ccc(F)cc1	1.7	.	6	9	5%
CCC(C)c1c(O)nc(SCC(=O)N2CCCCCC2)[nH]c1=O (centres undefined)	-0.8	.	-4	.	.
COc1cc2c(cc1OC)C(C)N(C(=O)Cc1ccc(C(F)(F)F)cc1)CC2 (centres undefined)	3.9	.	3	.	.
C/C(=N\NC(=O)c1ccncc1)c1ccc(NC(=O)c2ccc(Cl)cc2)cc1	-2.0	.	99	.	.
COc1ccc(CC(=O)N/N=C/c2ccc(-c3cccc(C(=O)O)c3)o2)cc1OC	-2.1	.	-2	.	-12%
Cn1c(CO)c(-c2ccccc2)c2cc([N+](=O)[O-])ccc21	-3.5	6	20	-12	14%
Cc1c(Cl)c([N+](=O)[O-])nn1CC(=O)NCc1ccc(Cl)cc1	-1.4	.	4	.	.
O=C1C(c2ccc(F)cc2)N(Cc2ccc3c(c2)OCO3)C(=O)CN1C1CCCCC1 (centres undefined)	14	-40	-8	-6	-2%
Fc1ccccc1N1CCN(Cc2cccnc2)CC1	-1.6	-18	-1	-4	-1%
CCOc1ccc(Cl)cc1S(=O)(=O)N1CCC(C(=O)NCc2ccco2)CC1	1.2	.	-6	.	.
Cc1cc(N/N=C/c2ccc(O)cc2)nc(NS(=O)(=O)c2ccccc2)n1	-2.9	-4	4	7	6%
CN1CCN(/N=C/c2c(O)n(CCC3=CCCCC3)c(=S)[nH]c2=O)CC1	.	.	-4	.	0%
Cc1ccccc1NC(=S)NC(=O)CCc1ccccc1	8.6	-15	-5	4	20%
CN(C)CCCNC(=S)/N=c1\sccn1Cc1ccccc1Cl	3.1	.	-7	.	.

More structures
SMILES	RecA splice inh	YopH inh	Mtb bLac sens	Arbovirus inh	Mtb growth	others
Cc1ccccc1Cn1ccc(NC(=O)c2cnn3cccnc23)n1	-0.2	34	-5	-17	-1%
CC(C)C(O)(C#CCN1CCCCCC1)c1ccccc1 (centres undefined)	0.5	.	-2	5	-5%
O=C(Nc1cccc(-c2cn3cccnc3n2)c1)c1ccc2c(c1)OCO2	-0.8	-10	19	-9	-8%
O=C(/C=C/Nc1ccc(S(=O)(=O)Nc2ncccn2)cc1)c1cccs1	-6.9	.	8	.	-2%
COc1ccc(C(=O)/C=C(/C)N(C)C)cc1	0.0	-20	-8	2	-4%
O=C(N/N=C/c1cc([N+](=O)[O-])ccc1O)C1C2CCCCC21 (centres undefined)	.	.	87	-15	-8%
CCOc1ccc(/C=N/NC(=O)CN2CCSCC2)cc1	-4.8	-21	1	-3	-12%
COc1cc(OC)c(OC)cc1CN1CCN(C(=O)COc2ccc3ccccc3c2)CC1	1.5	.	0	.	.
Cc1ccc2nc(NC(=O)CNS(=O)(=O)c3ccc(Br)s3)sc2c1	7.4	-45	1	1	5%
CNC(=O)c1cccc(NC(=O)C(C)c2ccc3cc(OC)ccc3c2)c1 (centres undefined)	-4.9	.	7	.	.
COc1ccc(C(=O)Nc2cc([N+](=O)[O-])ccc2N2CCCC2)cc1	.	.	-9	-7	7%
CCOCCCNC(=O)C(NC(=O)c1ccccc1O)c1ccc(C)cc1 (centres undefined)	-4.3	.	-4	1	2%
CC(NC(=O)COC(=O)C1CCN(S(=O)(=O)c2ccccc2C(F)(F)F)CC1)c1ccccc1 (centres undefined)	0.8	2	-5	6	-2%
Cc1cc(C)c(CN2CCC(n3nccc3NC(=O)CCOc3ccccc3)CC2)cc1C	2.0	.	49	.	.
O=C1CN(C(=O)COC(=O)CCSc2ccccc2Cl)c2ccccc2N1	2.4	-10	-1	3	.
COC(=O)CCC(=O)OC1(C)C(=O)C2=CN(C3CCCC3)C(c3ccc(OC)cc3)=CC2=C(Br)C1=O (centres undefined)	10	.	55	.	-7%
Cc1ccc(S(=O)(=O)N/N=C/c2ccc(C(=O)O)cc2)cc1	0.4	-31	-7	5	-4%
O=C1C=C(c2ccccc2)CCC1	0.3	.	4	.	.
Cc1ccccc1NC(=O)N1c2ccccc2CC1C (centres undefined)	-1.4	.	-5	17	1%

These rows are one share of the data, so the mix of outcomes need not match the whole.
